High-throughput results from PubChem BioAssay.
NS1 function inh = inhibitors of influenza NS1 protein function; S. cerevisiae slowed by influenza A NS1, growth recovery by OD600; AID 2326; 0.4% of 270,000 active; Potency, µM (doses to about 46.1 µM), for the others: at the top dose activity, positive = more growth; also: actives are rising curves; nearly all actives have a fitted effect of over 50% in size
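Compounds were scored for reversing the slow growth caused by influenza A NS1 in S. cerevisiae, measured by optical density at 600 nm. Assay medium contained 2% galactose at pH 6.0; NS1-free yeast of the same strain were the positive control.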
Cruzain inh noDet = cruzain (T. cruzi) inhibition without detergent; P25779; purified cruzain, Z-FR-AMC fluorescence, no detergent; Potency, µM, without a hit: max response, negative = inhibition, actives largely listed as inhibitors; 2.3% of 200,000 active; AID 1476; active = well fitted curve in the direction sought with a large enough effect; inconclusive = small, poorly fitted or top-dose-only effect, or another doubt; inactive = no such curve, though single readings can be large; an effect the other way counts as inactive or inconclusive;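 also: plate controls were enzyme without inhibitor for no effect and buffer without enzyme for full effect; nearly all actives have a fitted effect of over 40% in size; top concentration of the series not given in the record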
Target sequence (P25779 123-467 limits assumed): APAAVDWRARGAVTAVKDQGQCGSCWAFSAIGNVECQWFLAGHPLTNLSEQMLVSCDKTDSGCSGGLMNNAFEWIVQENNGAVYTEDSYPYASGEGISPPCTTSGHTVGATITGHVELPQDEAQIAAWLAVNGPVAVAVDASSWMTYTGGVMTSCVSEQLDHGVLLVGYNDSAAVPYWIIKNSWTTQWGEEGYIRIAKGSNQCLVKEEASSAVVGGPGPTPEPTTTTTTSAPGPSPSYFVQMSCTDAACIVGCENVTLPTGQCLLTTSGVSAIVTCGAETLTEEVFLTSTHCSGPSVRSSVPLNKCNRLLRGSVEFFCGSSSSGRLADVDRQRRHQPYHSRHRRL
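Detergent-free condition (0.00005% Triton X-100) in acetate buffer pH 5.5 with DTT. 1.5 nM enzyme and compound were pre-mixed 15 min, then 2 uM Z-FR-AMC substrate added; reaction progress from fluorescence change between first and third reads (60 s).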
RE007 growth inh = less growth of the S. pombe RE007 Vpr strain; S. pombe RE007 Vpr strain, BacTiter-Glo ATP luminescence, 24 h; control for the full effect not named in the record; Potency, µM (series often up to 92.2 µM), for inactives: top-dose activity change, negative = less growth; 0.21% of 360,000 active; AID 651644; active = well fitted falling curve with a large enough effect; inconclusive = small, poorly fitted or top-dose-only effect; inactive = no such curve, though single readings can be large or run the other way;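 also: % is scaled to controls: 0 for no effect and ±100 for the full control effect; nearly all actives have a fitted effect of over 50% in size; the assay follows cell death caused by Vpr and the record does not say whether a fall means rescue or toxicity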
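Fission yeast strain RE007, carrying one chromosomally integrated HIV-1 vpr copy, was seeded at OD 0.01 in PMG+AL medium with 23 nL pinned compound. After 24 h at 30 °C and 99% humidity, viability was read by BacTiter-Glo luminescence.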
Cruzain inh Det = blocks cruzain activity in presence of Triton detergent | P25779 | purified cruzain, Z-FR-AMC fluorescence, 0.01% Triton | Potency, µM, for the others: max response, negative = inhibition, actives largely listed as inhibitors | 0.43% of 200,000 active | AID 1478; active = well fitted curve in the direction sought with a large enough effect; inconclusive = small, poorly fitted or top-dose-only effect, or another doubt; inactive = no such curve, though single readings can be large; an effect the other way counts as inactive or inconclusive;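 also: plate controls were neutral wells for no effect and buffer without enzyme for full effect; nearly all actives have a fitted effect of over 40% in size; top concentration of the series not given in the record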
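In this qHTS format, compounds are incubated with 1.5 nM cruzain for 15 min at room temperature before 2 uM Z-FR-AMC is added. Release of AMC is followed at 360/450 nm, and progress is taken as the 60 s fluorescence difference.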
MARV entry inh = Marburg virus entry inhibition. Potency, µM (series often up to 37.8 µM), for inactives: at the top dose activity change, negative = inhibition, most hits filed as inhibitors. AID 540276. Marburg virus pseudotyped entry inhibition, cell reporter; control for the full effect not named in the record; about a third of the inactives were read at about 46 µM. 1.8% of 300,000 active; active = well fitted inhibition curve with a large enough effect; inconclusive = small, poorly fitted or top-dose-only effect, or effect the other way; inactive = flat fitted curve, though single readings scatter; tested in HEK293 cells; about a fifth of its hits are not listed in these tables; also: % is scaled to controls: 0 for no effect and ±100 for the full control effect; luciferase read-out
SARS PLP yeast = blocks SARS-CoV papain-like protease in a yeast assay; S. cerevisiae expressing SARS-CoV PLpro, growth rescue; control for the full effect not named in the record; 0.19% of 330,000 active; Potency, µM (series often up to 32.9 µM), for the others: at the top dose activity, positive = growth rescue; AID 485353; also: 0% is about no effect; nearly all actives have a fitted effect of over 55% in size; growth read by luminescence after 48 h
Lassa entry inh = inhibitors of Lassa virus binding or cell entry. Lassa virus pseudotype entry inhibition, cell reporter; control for the full effect not named in the record. Potency, µM (top dose mostly 37.9 µM), inactives show at the highest dose activity change, negative = inhibition, actives largely listed as inhibitors. 1.2% of 300,000 active; active means well fitted inhibition curve with a large enough effect; inconclusive means small, poorly fitted or top-dose-only effect, or effect the other way; inactive means flat fitted curve, though single readings scatter; tested in HEK293 cells; also: % is scaled to controls: 0 for no effect and ±100 for the full control effect; nearly all actives have a fitted effect of over 50% in size; luciferase read-out
StopGo reporter = FMDV 2A StopGo reporter, luciferase signal. human cells with a luciferase reporter of 2A StopGo recoding; control for the full effect not named in the record. 1.2% of 410,000 active. Potency, µM (titrated, usually from 57.9 µM), for inactives: at the top dose signal change, negative = less light; active = well fitted falling curve with a large enough effect; inconclusive = small, poorly fitted or top-dose-only effect; inactive = no such curve, though single readings can be large or run the other way; tested in HEK293T cells; also: % is scaled to controls: 0 for no effect and ±100 for the full control effect; nearly all actives have a fitted effect of over 45% in size; luciferase light after 4 h
Numbers without * were called inactive; u = inconclusive; x = no result given; & = joins results of further samples; [ ] = remark or other dose. Unless noted, calls follow the shape of the dose curve; as a rule, active means well fitted rising curve with a large enough effect; inconclusive means small, poorly fitted or top-dose-only effect; inactive means no such curve, though single readings can be large or run the other way. Potency is read from the fitted curve at half-maximal effect.

SMILES | NS1 function inh | Cruzain inh noDet | RE007 growth inh | Cruzain inh Det | MARV entry inh | SARS PLP yeast | Lassa entry inh | StopGo reporter
COc1cccc2c1OCC(CN1CCN(CCC(C)C)C(CCO)C1)=C2 (stereo not drawn) | 1.2% | x | u | x | 4.3%[46.1 µM] | 0.6% | 10.8% | -2.5%
COc1ccc(/C=C/C(=O)OCC(=O)c2ccc(S(=O)(=O)N3CCCCC3)cc2)cc1OC | x | x | -6.4% | x | 10.3%[46.1 µM] | 1.8% | -3.5% | -18.9%
CCn1c(COc2ccc(Cl)cc2)nnc1SCC(=O)Nc1ccc2c(c1)OCO2 | -10.8% | -7.7% | -7.0% | -2.3% | 4.3% | 0.8% | -2.7% | -24.6%
COC(=O)c1cn[nH]c1N | 2.8% | -1.7% | -1.2% | 2.4% | 0.0%[46.1 µM] | 0.4% | -1.5% | 0.7%
COc1ccc(C(=O)Nc2ccc3c(c2)C(=O)NC3=O)cc1 | -12.8% | x | 4.1% | x | x | 6.1% | x | -1.0%
C=CCN(CC=C)S(=O)(=O)c1ccc(C(=O)Nc2sc3c(c2C(N)=O)CCCCC3)cc1 | 8.3% | u | 2.5% | -4.3% | -28.4% | 4.9% | -29.3% | -21.1%
O=C(NCCCN1CCCC1=O)c1ccc(S(=O)(=O)Nc2ccccc2)cc1 | x | x | 3.3% | x | -17.2% | x | -1.2% | 5.3%
NC(=O)C1CCN(C(=O)Cc2ccsc2)CC1 | -12.2% | x | -18.5% | x | u | -1.2% | 10.6%[46.1 µM] | -15.5%
Cc1ccc(Cl)cc1N1CCN(C(=O)CCCCCn2c(=O)[nH]c3ccccc3c2=O)CC1 | x | 20.9% | x | -4.2% | x | x | u | -11.9%
COCCCNC(=O)CN(c1ccc(F)cc1)S(=O)(=O)c1ccc2c(c1)OCCO2 | -19.2% | x | 8.5% | x | u | -6.1% | -0.1% | -5.3%
CCOC(=O)c1ccccc1NC(=O)CN(c1cccc(OC)c1)S(C)(=O)=O | -1.3% | u | 7.1% | -4.6% | -9.5% | 0.3% | -0.7% | -3.7%
COc1ccc(OCC(=O)N2CCN(C(=O)c3ccccc3)CC2)cc1 | -1.7% | -1.5% | -7.2% | 4.5% | -1.7% | 1.6% | 19.3% | -9.3%
COc1cc(OC)cc(N2C(=O)CSC23C(=O)Nc2ccccc23)c1 (stereo not drawn) | x | 9.8% | x | -1.9% | x | x | u | -9.7%
COc1ccc(Br)cc1S(=O)(=O)Nc1ncccc1C | 4.0% | x | -3.8% | x | 1.5% | -0.6% | -12.4% | 66.7%[activator]
COc1ccc(NC(=O)CN(C)C2=NS(=O)(=O)c3ccccc32)cc1Cl | x | x | -3.1% | x | 0.2%[46.1 µM] | 2.7% | 1.8%[46.1 µM] | 18.3%
COC(=O)c1ccc(NC(=O)c2cccc(OC)c2)cc1 | -46.5% | 3.1% | u | 0.3% | u | -27.3% | -21.5% | 17.7%
O=C(NNS(=O)(=O)c1ccc(F)cc1)c1ccc([N+](=O)[O-])cc1 | -0.8% | x | 0.5% | x | 3.5% | 0.0% | 11.4% | 8.3%
O=C(NC1CC(=O)N(c2ccccc2)C1)c1ccc(S(=O)(=O)N2CCCCC2)cc1 (stereo not drawn) | x | 1.7% | x | -2.7% | x | x | 8.8%[46.1 µM] | -22.8%
O=C(Nc1ccc(F)c(F)c1)C1CCN(S(=O)(=O)c2cccs2)CC1 | x | x | 12.1% | x | u | 3.6% | -14.6% | -18.7%
CC1CCCN(C(=O)CSc2n[nH]c(-c3cccs3)n2)C1 (stereo not drawn) | x | x | 6.8% | x | 12.3%[46.1 µM] | -0.5% | -27.3% | 13.5%
COc1cccc(N2CCN(C(=O)C3Cc4ccccc4N3C(C)=O)CC2)c1 (stereo not drawn) | x | 14.0% | x | -0.5% | x | x | -22.7%[46.1 µM] | -5.3%
O=C1N/C(=N\N=C\c2cccs2)SC1Cc1cccc(Cl)c1 (stereo not drawn) | u | u | -7.9% | -3.4% | u | -1.2% | u | -10.5%
O=C(CNC(=O)c1ccc(Cl)cc1)OCc1cc(=O)n2nc(C3CCCCC3)sc2n1 | x | 0.3% | x | 3.7% | x | x | 25.2%[46.1 µM] | -16.4%
O=C(COC(=O)CCNS(=O)(=O)c1cccc(C(F)(F)F)c1)NC(=O)NC1CCCCC1 | 10.3% | u | -10.2% | -4.6% | 5.2% | -12.0% | 6.9% | -26.6%
Cc1cc(S(=O)(=O)N2CCCC(C(=O)Nc3ccc(C(=O)O)cc3)C2)ccc1Cl (stereo not drawn) | 2.0% | x | 2.5% | x | -7.9%[46.1 µM] | -0.6% | -0.6%[46.1 µM] | 10.9%
Further structures
SMILES | NS1 function inh | Cruzain inh noDet | RE007 growth inh | Cruzain inh Det | MARV entry inh | SARS PLP yeast | Lassa entry inh | StopGo reporter
COc1ccc(CNC(=O)Cc2cn(C)c3ccccc23)c(OC)c1 | -30.1% | x | -6.8% | x | u | -1.7% | -27.0% | 11.6%
O=C(Nc1cccc(S(=O)(=O)N2CCCCC2)c1)c1c2c(nc3ccccc13)CCN(Cc1ccccc1)C2 | 15.2% | -0.6% | 11.0% | -5.2% | u | -1.6% | -24.9% | -16.6%
Cc1nc2cc(C(=O)N3CCc4ccccc43)ccc2n1-c1ccc(F)c(F)c1 | -43.6% | 16.5% | 33.2% | -3.5% | 28.7% | -2.3% | 13.4% | -18.0%
O=[N+]([O-])c1cnn(-c2nc(-c3ccco3)cc(C(F)(F)F)n2)c1 | x | x | 45.4% | x | -2.3% | 0.7% | u | -4.9%
Cn1c(N2CCNCC2)nc2ccccc21 | -2.1% | 9.7% | 14.2% | 1.7% | -25.6% | 6.9% | 8.8% | -4.7%
CCOC(=O)N1CCN(c2c(N3CCN(c4ccccc4F)CC3)c(=O)c2=O)CC1 | -3.4% | x | 7.1% | x | -12.5%[46.1 µM] | 0.5% | u | -12.1%
C=CCn1c(SCCCC)nc(O)cc1=O | u | -5.8% | -4.7%&-10.5% | -0.1% | 2.2%&2.2%[46.1 µM] | -9.4%&2.2% | -5.5% | -10.3%&3.4%
Nc1nnc(Sc2ccc(Cl)cc2[N+](=O)[O-])s1 | -2.1% | u | 1.7% | -0.9% | 0.1%[46.1 µM] | 6.1% | 11.8% | -2.4%
O=C(NN=Cc1cccc2ccccc12)C1CC1 | x | x | -26.1% | x | 2.1%[46.1 µM] | x | -13.7%[46.1 µM] | 23.6%
Cc1sc(-c2cc3c([nH]c2=O)CC(c2ccccc2)CC3=O)nc1-c1ccc(Cl)cc1 (stereo not drawn) | x | u | x | -4.6% | 7.6%[46.1 µM] | x | -28.6%[46.1 µM] | -8.2%
CCOc1ccc(CNC(=O)C2=Cc3cc(Br)ccc3OC2)cc1OC | x | u | x | -9.3% | x | x | -1.6%[46.1 µM] | -0.8%
COc1ccccc1C(=O)NCCNc1ccc([N+](=O)[O-])cc1Cl | 8.0% | x | 5.8% | x | x | 10.1% | x | -14.9%
CCOc1cc(NC(=S)NCCCN2CCOCC2)c(OCC)cc1NC(=O)c1ccco1 | -2.1% | x | 3.0% | x | 21.4% | -0.3% | 7.1% | -6.6%
C=C(C)C(=O)Nc1cccc(C2=NOC3(C2)C[C@H](C(N)=O)N(C(=O)/C=C/C)C3)c1 (stereo partly drawn) | 10.9% | x | -13.2% | x | x | 0.5% | x | -13.6%
CN(CCc1ccccn1)C(=O)CCC1CCCN(C(=O)c2ccsc2)C1 (stereo not drawn) | 1.2% | x | 8.9% | x | -0.1% | 0.0% | 3.4% | -17.2%
Cc1ccc(CN(C(=O)COc2ccc([N+](=O)[O-])cc2)c2ccccn2)cc1 | x | -7.3% | x | -8.2% | 14.4%[46.1 µM] | x | -3.1%[46.1 µM] | -24.7%
Cc1ccsc1-c1cc(C(=O)O)c2c(ccc3ccccc32)n1 | 12.3% | x | 4.3% | x | u | 6.0% | 12.4% | 57.8%[activator]
COc1ccc(S(=O)(=O)N2CCCCC2)cc1NC(=O)CSc1ncnc2ccccc12 | 19.3% | -3.1% | 2.4% | -5.0% | u | 0.8% | -28.7% | -17.3%
CCOc1ccccc1N(CC(=O)N/N=C(\C)c1cccc(Br)c1)S(C)(=O)=O | -0.6% | x | -2.0% | x | u | 1.1% | u | -26.5%
COC(=O)C1=C(Nc2ccc(OC)cc2)C=C(C)C(C(=O)OC)C1c1ccc(C)cc1 (stereo not drawn) | 1.3% | 4.9% | 6.2% | -7.3% | u | -25.7% | u | -22.1%
Cc1nc(N)[nH]c(=O)c1CC(=O)OCCCl | -1.7% | x | -2.5% | x | x | 0.5% | x | -8.2%
COc1ccc(CCNC(=O)CCNS(=O)(=O)c2cc(Br)cnc2N)cc1OC | -16.4% | x | -9.6% | x | x | 2.9% | x | 3.9%
COc1cccc(NC(=O)Cn2c(=O)n(CCc3ccc(OC)c(OC)c3)c(=O)c3ccccc32)c1 | x | 5.1% | x | -6.4% | u | x | 16.5%[46.1 µM] | -7.6%
Cc1nn(-c2ccc(F)cc2)c(C)c1NS(=O)(=O)c1ccc(Cl)cc1 | -37.2% | -5.2% | 16.6% | -2.8% | u | -2.2% | -4.6% | -21.9%
CCc1ccc(OCC(=O)N(C)C)c(Br)c1 | -0.1% | 1.2% | -9.3% | 2.1% | 10.9% | -0.8% | 13.2% | x
COc1cc(O)c(C(CC(=O)N2CCCCC2)c2ccc(N(C)C)cc2)c(OC)c1 (stereo not drawn) | -39.4% | x | -14.5% | x | x | 0.1% | x | 7.4%
CC(C)NC(=O)NC(=O)COC(=O)c1ccccc1O | x | x | -6.5% | x | -2.7%[46.1 µM] | -0.7% | 7.2%[46.1 µM] | -0.4%
CN(C(=O)COC(=O)c1ccc(Cl)s1)C1(C#N)CCCCC1 | x | x | 0.8% | x | -1.3%[46.1 µM] | 1.8% | -5.0% | 27.0%
O=C(c1ccc2c(c1)OCO2)N(c1ccc(Cl)cc1)C1C=CS(=O)(=O)C1 (stereo not drawn) | -8.0% | -11.3% | 7.5% | 5.5% | 4.5% | 0.7% | -11.9% | -9.9%
